HCMV UL50-53 inh – inhibitors of HCMV UL50-UL53 interaction, biochemical, HTRF. HCMV UL50-UL53 nuclear egress complex (human cytomegalovirus). normalized percent inhibition. inhibition, % (no concentration beside the values). 0.15% of 190,000 active. AID 1918969, 2023;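 active = both replicates at 50% or more, plus weaker picks with an unusually low signal ratio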;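 note: stock transfer was 100 nL into about 20 µL; 0% = negative control wells and 100% = wells with untagged competitor protein; inactives centre near -12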
GIV-Gai inh – inhibitors of GIV peptide binding to Galpha-i3, primary screen, biochemical, fluorescence polarization, FITC-GIV GBA peptide, rat Galphai3; Guanine nucleotide-binding protein G(i) subunit alpha-3 (Rattus norvegicus), P08753; 90 min; hits give low values; scaled: aluminum fluoride 0%, vehicle 100%; percent of control (FP), % (test concentration not listed); 0.42% of 210,000 active;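 active = replicate mean at 85% of control or lower, very high polarization wells dropped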;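 note: wells of about 15 µL received 100 nL stock; the first replicate is given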
Target sequence (P08753 whole entry, looked up): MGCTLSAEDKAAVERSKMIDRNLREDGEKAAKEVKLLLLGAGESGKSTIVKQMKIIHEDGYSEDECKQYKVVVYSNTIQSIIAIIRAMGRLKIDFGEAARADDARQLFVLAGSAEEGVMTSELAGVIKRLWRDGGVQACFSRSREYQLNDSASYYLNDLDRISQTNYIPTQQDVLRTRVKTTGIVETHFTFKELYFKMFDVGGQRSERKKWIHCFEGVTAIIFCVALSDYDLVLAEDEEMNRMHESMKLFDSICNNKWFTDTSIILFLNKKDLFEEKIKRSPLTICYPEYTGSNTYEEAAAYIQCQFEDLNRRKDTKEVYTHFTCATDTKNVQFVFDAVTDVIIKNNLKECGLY
Sa growth inh – S. aureus growth inhibition at 42 and 30 °C, primary screen, LtaS inhibitor project, RN4220, two temperatures; OD600, 20 h, 42 °C; hits give low values; relative growth, % (concentration not given with the values); 0.53% of 170,000 active; AID 720641, 2013;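 active = growth at 42 °C up to 50% and 20 or more points under that at 30 °C, or under 10% at both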;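 note: 300 nL library stock went into each well; scaled to the means of positive and negative controls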
Sa growth inh second temp – further read-out of Sa growth inh, marked with its call; relative growth, %; measured here: growth at 30 °C;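 optical density after 20 h as mean of two plates; 100% = untreated growth and lower means inhibition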
* = called active by the depositor; · = no result given; & = joins results of further samples.

SMILES	HCMV UL50-53 inh	GIV-Gai inh	Sa growth inh	Sa growth inh second temp
Cc1cc(Nc2ccc(C)c(F)c2)c2ccccc2n1	-4	103	82	78
Cc1cccc(CSc2nnc3n(CC(C)C)c(=O)c4sccc4n23)c1	-24	100	·	·
COCCNc1ccc(-c2nc(-c3ccccn3)no2)cc1[N+](=O)[O-]	-100	100	93	85
CCN(CC)CCCNC(=O)c1ccc2c(c1)N(Cc1c(F)cccc1Cl)C(=O)c1ccccc1S2	-7	105	114	53
CN1CCN(C(=O)Cn2nc(N3CCN(c4ccccc4)CC3)ccc2=O)CC1	-41	104	·	·
O=C(OCC(=O)N1CCCCC1)C(c1ccccc1)c1ccccc1	2	·	114	97
O=C(Nc1nnc(-c2ccc(Cl)cc2Cl)s1)c1ccc(S(=O)(=O)N2CCOCC2)cc1	-7	99	·	·
Cn1c(=O)c2c(nc3n(-c4ccc(F)cc4)c(-c4ccc(Cl)cc4)cn23)n(C)c1=O	-29	102	·	·
CCN(C(=O)COc1cc(=O)n(C)c2ccccc12)c1cccc(C(F)(F)F)c1	-12	105	95	73
Cc1cc(Cl)ccc1NS(=O)(=O)c1c(C)sc(C)c1-c1ccno1	-24	102	·	·
O=C(COc1ccccc1)Nc1ccc(C(O)(C(F)(F)F)C(F)(F)F)cc1	1	·	96	85
Cc1ccccc1NCN1C(=O)C2=C(CCCC2)C1=O	-10	105	90	75
Cc1ccccc1-n1c(SCC(=O)NCc2ccccc2)nc2n[nH]c(C)c2c1=N	5	·	99	71
O=C(Nc1nc(-c2ccccc2)cs1)c1ccc(S(=O)(=O)N2CCCCC2)cc1	·	95	122	90
Cc1nn(S(C)(=O)=O)c(C)c1S(=O)(=O)N(C)c1ccccc1	-30	101	·	·
Cc1cc(NC(=O)C2CCCN(S(=O)(=O)c3cn(C)cn3)C2)ccc1Br (centres undefined)	·	101	82	84
COc1ccc(N2CC(C(=O)Nc3ccccc3)CC2=O)cc1 (centres undefined)	-4	·	97	89
COC(=O)c1cc(S(=O)(=O)N(C)CC(=O)Nc2cc(Cl)ccc2C)cn1C	-25	103	·	·
CCOc1ccc(NC(=O)NCCN2CCN(c3cc(Cl)ccc3C)CC2)cc1	4	103	108	96
Clc1ccc(CCNC(c2cccc(Cl)c2)c2nnc(-c3ccccc3)o2)cc1 (centres undefined)	-13	102	89	87
CC1CCN(c2nc3ccccc3nc2SCC(=O)Nc2ccc(F)cc2)CC1	-4	98	·	·
CCCN(CCC)CC(O)Cn1cc(/C=C/C(=O)c2ccc(OCC)cc2)c2ccccc21 (centres undefined)	-12	127	86	15
COc1ccc(C(=O)Nc2ccc(NC(=O)c3ccco3)c(Cl)c2)cc1Br	-11	100	96	88
Cc1ccc2c(c1)c1nnc(SCC(=O)N3CCCCC3C)nc1n2C (centres undefined)	-78	100	85	76
CCN(CC)C(=O)C1CCCN1S(=O)(=O)c1cccc2nsnc12 (centres undefined)	-104	·	63	90
CCC(=O)N1CCc2cc(S(=O)(=O)N(C)CCC#N)ccc21	-2	107	116	101
COc1cc2c(cc1OC)C(c1ccccc1)N(C(=O)S(C)(=O)=O)CC2 (centres undefined)	·	104	108	91
Cc1ccc(S(=O)(=O)c2ccc(Cl)cc2)cc1S(=O)(=O)N1CCCC1	·	106	102	113
CCOc1ccc(C(CNC(=O)c2oc3ccccc3c2C)c2c[nH]c3ccccc23)cc1OC (centres undefined)	-8	106	·	·
CCOC(=O)c1c(OCC)[nH]c2ccc(O)cc12	2	102	94	105
Cc1ccc(NC(=O)C2CCN(c3nc4ccccc4[nH]3)CC2)cc1Cl	·	102	95	73
O=C(c1cn(Cc2ccccc2Cl)nc1-c1ccccc1)N1CCN(C2CCS(=O)(=O)C2)CC1 (centres undefined)	-22	·	72	90
CCOc1ccc(CN(C)CC(=O)NC2CC2)cc1OC	-21	·	96	91
CCOc1ccccc1CNC(=O)c1cc2cccc3c2n1CCO3	-15	123	·	·
CCCN1CCN(CCCNC(=O)c2cnn(-c3ccc(C)cc3)c2-n2cccc2)CC1	·	100	106	103
Cc1ccccc1NC(=O)N1CCN(c2nc3cc(F)ccc3n3cccc23)CC1	-29	102	·	·
Cc1cc(=O)[nH]c(SCC(=O)N2CCCc3ccccc32)n1	-5	103	76	86
COc1ccc(S(=O)(=O)N2CCc3cc4ccccc4nc32)c(C)c1	-4	106	·	·
Cc1cccc(NC(=O)CN2C(=O)C(c3ccc(F)cc3)=NC23CCCCCC3)c1C	-8	99	104	94
N#C/C(C(=O)N1CCCC1)=c1/s/c(=C\c2ccc(-c3ccc(S(N)(=O)=O)cc3)o2)c(=O)n1-c1ccccc1	-12	·	93	97
CSc1nc2c(cnn2-c2ccc(C)cc2)c(=O)[nH]1	-35	109	91	78
CCOC(=O)N1CCN(C(=O)CN(c2cccc(Cl)c2C)S(=O)(=O)c2ccc(C)cc2)CC1	3	105	101	105
Cn1c(C(C#N)C(=O)c2cncc(Br)c2)nc2ccccc21 (centres undefined)	7	·	65	92
NC1=CC(=O)CCC1	-7	·	85	86
Oc1cccc(CC(F)(F)F)c1	-14	·	93	85
COc1ccccc1NC(=O)CSC1=NC(=O)C(Cc2ccccc2)C(=O)N1 (centres undefined)	-13	104	80	83
Cn1c2c(c3cc(C4CCCCC4)ccc31)CCCCC2=O	1	·	102	123
O=S(=O)(c1cccc(C(F)(F)F)c1)N1CCN(c2ncccn2)CC1	-34	101	88	87
Cc1ccc(NC(=O)c2nc[nH]c2C(=O)N2CCCCC2)c(C(=O)c2ccccc2)c1	-10	100&91	109&88	76&83
CS(=O)(=O)N(Cc1ccccc1)c1ccc(C(=O)NCCSc2ccccn2)cc1	·	102	107	82
CN(C)CCNC(=O)c1cnc2sc3c(n2c1=O)CCC3	-8	106	·	·
O=C(Cn1nc(-c2ccco2)ccc1=O)Nc1cccc2ccccc12	-44	98	85	73
Cc1ccc(S(=O)(=O)N(CC(=O)N2CCN(c3ccccc3F)CC2)Cc2ccc(Cl)cc2)cc1	-20	99	·	·
O=C(c1nc(-c2ccccc2)n(-c2ccc(Cl)cc2)n1)N1CCN(c2ccccc2)CC1	15	103	·	·
O=C(CC1OC(=O)c2ccccc21)c1ccccn1 (centres undefined)	0	103	109	86
Cc1n[nH]c(=O)c2c1nnn2Cc1ccc(F)cc1	-9	104	107	84
CCOC(=O)C1CCN(C(=O)c2cc3cccc4c3n2CC(CC)O4)CC1 (centres undefined)	-8	109	·	·
Cc1n[nH]c(=S)n(/N=C/c2cccs2)c1=O	-71	99	96	98
O=C(CN1CCCC1c1ccc2c(c1)OCCCO2)Nc1ccc(S(=O)(=O)N2CCCCC2)cc1 (centres undefined)	-21	·	91	87
Cc1ccc(C)c(NC(=O)CN(C)C(=O)COc2ccccc2C#N)c1	-20	·	92	96

Ordered by length of the SMILES (lowest first): 13 of the compounds above
SMILES	HCMV UL50-53 inh	GIV-Gai inh	Sa growth inh	Sa growth inh second temp
CCOC(=O)c1c(OCC)[nH]c2ccc(O)cc12	2	102	94	105
Cn1c2c(c3cc(C4CCCCC4)ccc31)CCCCC2=O	1	·	102	123
CCOc1ccccc1CNC(=O)c1cc2cccc3c2n1CCO3	-15	123	·	·
COc1ccc(N2CC(C(=O)Nc3ccccc3)CC2=O)cc1 (centres undefined)	-4	·	97	89
O=C(OCC(=O)N1CCCCC1)C(c1ccccc1)c1ccccc1	2	·	114	97
Cc1nn(S(C)(=O)=O)c(C)c1S(=O)(=O)N(C)c1ccccc1	-30	101	·	·
COc1cc2c(cc1OC)C(c1ccccc1)N(C(=O)S(C)(=O)=O)CC2 (centres undefined)	·	104	108	91
Cc1cc(NC(=O)C2CCCN(S(=O)(=O)c3cn(C)cn3)C2)ccc1Br (centres undefined)	·	101	82	84
O=C(Nc1nc(-c2ccccc2)cs1)c1ccc(S(=O)(=O)N2CCCCC2)cc1	·	95	122	90
CCCN(CCC)CC(O)Cn1cc(/C=C/C(=O)c2ccc(OCC)cc2)c2ccccc21 (centres undefined)	-12	127	86	15
Cc1ccc(NC(=O)c2nc[nH]c2C(=O)N2CCCCC2)c(C(=O)c2ccccc2)c1	-10	100&91	109&88	76&83
CCN(CC)CCCNC(=O)c1ccc2c(c1)N(Cc1c(F)cccc1Cl)C(=O)c1ccccc1S2	-7	105	114	53
N#C/C(C(=O)N1CCCC1)=c1/s/c(=C\c2ccc(-c3ccc(S(N)(=O)=O)cc3)o2)c(=O)n1-c1ccccc1	-12	·	93	97

Further structures:
SMILES	HCMV UL50-53 inh	GIV-Gai inh	Sa growth inh	Sa growth inh second temp
CCC(C(=O)NC)N1CCN(Cc2ccc(F)cc2)C(=O)C1=O (centres undefined)	-42	105	·	·
Cc1ccc(NC(=O)c2cc(C(C)C)on2)cc1	1	99	92	87
CS(=O)(=O)N1CCN(CCCc2ccccc2)CC1	-18	97	92	90
COc1cccc(NC(=O)CSc2c3c(nc4ccccc24)CCC3)c1	1	97	112	89
NC(=S)NN=C1C2CC3CC(C2)CC1C3	-27	·	100	95
O=C(/C=C/c1ccc2c(c1)OCO2)OCC(=O)N1CCOCC1	-68	·	92	94
CCS(=O)(=O)c1ccc(I)s1	1	109	107	74
Cc1cc(=O)oc2cc(NC(=O)c3cccc(S(=O)(=O)N4CCCC4)c3)ccc12	-15	·	108	95
CC1=N/C(=C/c2ccc(C)cc2)C(=O)O1	-11	107	118	94
COC(=O)c1sccc1Oc1ccc(C(F)(F)F)cc1NC(=O)c1ccccc1OC	-27	99	73	88
CCOc1ccc(-c2nc3ncccn3c2NCc2ccccc2OC)cc1OC	-87	103	100	85
CCOC(=O)c1cc(S(=O)(=O)N2CCN(C(=O)OCC)CC2)cn1C	-5	102	117	91
CN(C1CCCCC1)S(=O)(=O)c1ccccc1NC(=O)COc1ccccc1C#N	-6	·	110	88
COc1cc(C2CC(=O)Nc3cc4c(cc32)OCCO4)cc(Br)c1OC (centres undefined)	4	109	117	99
CC1=C(C(=O)Nc2cc(C)cc(C)c2)C2(CCCCC2)OC1=O	-17	105	121	95
CCN(CC)S(=O)(=O)c1ccc2oc(Nc3ccccc3)nc2c1	5	·	98	93
COc1ccc(NC(=O)CNC(N)=O)cc1NS(=O)(=O)c1ccc(F)cc1	3	·	93	101
CCOC(=O)N1CCN(C(=O)CCS(=O)(=O)c2ccc(Br)s2)CC1	·	101	96	87
COc1cc(-c2[nH]nc3c2C(c2cccc(O)c2)C(C#N)=C(N)O3)cc(OC)c1OC (centres undefined)	-20	101	·	·
COc1cc(C2C(C(=O)Nc3nc4ccccc4s3)=C(C)NC3=C2C(=O)CC(C)(C)C3)cc(OC)c1OC (centres undefined)	-8	101	·	·
CCN1CCOC(=O)C1CC(=O)Nc1ccccc1C(F)(F)F (centres undefined)	12	104	30*	51*
O=C(Nc1ccc2nsnc2c1)c1ccccc1N1CCOCC1	-66	103	109	47
Cc1ccc(-c2nn(-c3ccccc3)cc2CCC(=O)NCc2ccccc2)cc1	-2	97	·	·
CCOC(=O)c1ccc2ncc3c(-c4ccccc4)nn(-c4ccc(F)c(Cl)c4)c3c2c1	10	108	105	105
COC(=O)CN1C(=O)Nc2ccc(C)cc2C1c1ccccc1 (centres undefined)	-10	100	99	87
NC(=O)c1ccc(NC(=O)COC(=O)CCN2C(=O)c3ccccc3C2=O)cc1	-15	·	100	94
COCCOC(=O)C1=C(C)NC2=C(C(=O)CC(c3ccc(OC)c(OC)c3)C2)C1c1ccc(OC)cc1OC (centres undefined)	-31	105	·	·
COc1ccc(OC)c(S(=O)(=O)N2CCC(N3CCN(Cc4ccc(F)cc4)C3=O)CC2)c1	-27	106	·	·
O=C(Nc1cc(-n2cnnn2)ccc1Cl)C1CC1	-35	96	·	·
CC1=C(C(=O)Nc2ccccc2)C(c2ccccc2)n2nc(-c3ccco3)nc2N1 (centres undefined)	-21	110	124	92
Cc1cc(=O)[nH]c(SCC(=O)Nc2ccccc2C#N)c1C#N	-11	·	98	86
COc1ccc(CNC(=O)C2CCN(C(=O)N3CC(C)Oc4ccc(C)cc43)CC2)cc1 (centres undefined)	2	105	84	79
Cc1ccc(Nc2cc(N3CCN(C(=O)c4ccc(Br)cc4)CC3)ncn2)cc1	-11	103	·	·
CCCn1cc(C2CC(=O)N(c3ccccc3C)C2=O)c2ccccc21 (centres undefined)	-5	106	·	·
CCOc1ccc(CCNC(=O)Cn2ncn3c(cc4ccccc43)c2=O)cc1OCC	-29	100	102	88
OC(c1n[nH]c(=S)n1-c1ccccc1)C(O)c1n[nH]c(=S)n1-c1ccccc1 (centres undefined)	-8	·	113	90
CC1CCN(c2ncnc3c2nnn3C)CC1	·	97&103	112	93
O=C(COc1ccccc1Cl)Nc1cc(-c2ccccc2F)nn1-c1ccccc1	·	102	101	93
CCN(CC)C(=O)Cn1c(=O)n(Cc2ccc(C(=O)NCCCOC)cc2)c(=O)c2ccccc21	5	101	84	98
O=S(=O)(NCC1COC2(CCCCC2)O1)c1ccc(Cl)s1 (centres undefined)	-26	102	84	85
COCCN1C(=O)c2ccccc2C(C(=O)NCc2ccccc2OC)C1c1ccc(F)cc1 (centres undefined)	·	100	98	84
C#CCN1C(=O)C(O)(CC(=O)c2ccc(OC)c(OC)c2)c2cc(Br)ccc21 (centres undefined)	-3	96	93	88
C=C(c1ccc(C(=O)O)cc1)c1cc2c(cc1C)C(C)(C)CCC2(C)C	-33&-13	104	85	84
COc1ccc(S(=O)(=O)NCc2cccn2Cc2cccc(C)c2)cc1Cl	·	107	111	85
